Source: PubChem BioAssay (National Center for Advancing Translational Sciences (NCATS))
HSD17B inh: blocks hydroxysteroid 17-beta dehydrogenase activity. Q99714. recombinant HSD17B10, NADH fluorescence kinetic; many of its hits are not listed in these tables. Potency, µM (top dose mostly 57.1 µM), inactives show at the highest dose activity change, negative = inhibition, actives largely listed as inhibitors. 7.6% of 75,000 active. AID 893; active = well fitted inhibition curve with a large enough effect; inconclusive = small, poorly fitted or top-dose-only effect; inactive = no such curve, though single readings can be large or run the other way;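 also: the protocol describes HADH2 (HSD17B10) and not the HSD17B4 of the title; nearly all actives have a fitted effect of over 70% in size; most hits overshoot -100% by far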
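His-tagged E. coli-expressed HADH2 at 20 nM in 100 mM Tris-HCl pH 9.0 with 0.01 % Tween-20, preincubated 15 min with compound at room temperature. Reaction with 1 mM NAD+ and 90 uM beta-hydroxybutyryl coenzyme A; NADH fluorescence (360/450 nm) read kinetically over 4 min, last minus first point.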
The depositor's hits bear a star; ? = inconclusive; [ ] = dose if it differs, or a comment. % is scaled to controls: 0 for no effect and ±100 for the full control effect; potency is read from the fitted curve at half-maximal effect. A portion of the library, so the mix of outcomes need not match the whole.

The first 18 compounds, to show the layout:
SMILES	HSD17B inh
CC(C)CCSc1nc2c(c(=O)[nH]c(=O)n2C)n1CCc1ccccc1	-2%
Cc1cccc(N(C)S(=O)(=O)c2ccc3[nH]c(=O)c(=O)[nH]c3c2)c1	?
COc1cc(NS(=O)(=O)c2ccc(NC(=O)C34CC5CC(CC(C5)C3)C4)cc2)ncn1	-6%
Cc1cc(C(F)(F)F)n2ncc(-c3ccccc3)c2n1	-7%
O=S(=O)(c1ccc(F)cc1)N(CCO)CC(O)Cn1c2ccccc2c2ccccc21 (centres undefined)	-4%
CC(=O)NC1CCN(C(=O)N2CCCC2)CC1	16%
COc1ccc(CN2CCCC(C(=O)N3CCCC3)C2)cc1 (centres undefined)	6%
Cc1ccc(-c2nnc3n2N=C(c2ccc(Br)cc2)CS3)cc1	-26%
O=C(CCCN1C(=O)c2ccccc2C1=O)Oc1ccc(F)cc1	2%
O=C(NCN1CCc2ccccc2C1)c1ccccc1	12%
CCOC(=O)c1cccc(NC(=O)CSc2nnc(COc3ccc(Cl)cc3)o2)c1	-9%
Cc1ccc2nc(NC3=NCN(Cc4cccnc4)CN3)nc(C)c2c1	6%
Cc1cc(NC(=O)C2COc3ccccc3O2)no1 (centres undefined)	9%
CCOC(=O)c1ccc(Nc2cc(C)nc3ncnn23)cc1	-8%
CC(=O)Nc1ccc(NS(=O)(=O)C(F)(F)F)cc1	-10%
Cc1ccc(S(=O)(=O)N(C)CC(=O)OCc2nnc(-c3ccccc3)o2)cc1	5%
CCN(CCCNC(=O)CCNC(=O)Cn1ccc2ccccc2c1=O)c1ccccc1	?
CCCn1c2c(c(O)c(C(=O)Nc3ccc(OC)cc3)c1=O)CCCC2	32µM*

The whole of this part (from the top)
SMILES	HSD17B inh
CC(C)CCSc1nc2c(c(=O)[nH]c(=O)n2C)n1CCc1ccccc1	-2%
Cc1cccc(N(C)S(=O)(=O)c2ccc3[nH]c(=O)c(=O)[nH]c3c2)c1	?
COc1cc(NS(=O)(=O)c2ccc(NC(=O)C34CC5CC(CC(C5)C3)C4)cc2)ncn1	-6%
Cc1cc(C(F)(F)F)n2ncc(-c3ccccc3)c2n1	-7%
O=S(=O)(c1ccc(F)cc1)N(CCO)CC(O)Cn1c2ccccc2c2ccccc21 (centres undefined)	-4%
CC(=O)NC1CCN(C(=O)N2CCCC2)CC1	16%
COc1ccc(CN2CCCC(C(=O)N3CCCC3)C2)cc1 (centres undefined)	6%
Cc1ccc(-c2nnc3n2N=C(c2ccc(Br)cc2)CS3)cc1	-26%
O=C(CCCN1C(=O)c2ccccc2C1=O)Oc1ccc(F)cc1	2%
O=C(NCN1CCc2ccccc2C1)c1ccccc1	12%
CCOC(=O)c1cccc(NC(=O)CSc2nnc(COc3ccc(Cl)cc3)o2)c1	-9%
Cc1ccc2nc(NC3=NCN(Cc4cccnc4)CN3)nc(C)c2c1	6%
Cc1cc(NC(=O)C2COc3ccccc3O2)no1 (centres undefined)	9%
CCOC(=O)c1ccc(Nc2cc(C)nc3ncnn23)cc1	-8%
CC(=O)Nc1ccc(NS(=O)(=O)C(F)(F)F)cc1	-10%
Cc1ccc(S(=O)(=O)N(C)CC(=O)OCc2nnc(-c3ccccc3)o2)cc1	5%
CCN(CCCNC(=O)CCNC(=O)Cn1ccc2ccccc2c1=O)c1ccccc1	?
CCCn1c2c(c(O)c(C(=O)Nc3ccc(OC)cc3)c1=O)CCCC2	32µM*
O=C(c1ccncc1)N1CCC2(CCCN(C(c3ccccc3)c3ccccc3)C2)CC1	-1%
COc1ccc(CNC(=O)C2CC(c3ccc(F)cc3)=NO2)cc1 (centres undefined)	0%
Cc1ccc(-c2nn(CC(=O)O)c(=O)c3ccccc23)cc1	4%
COc1ccc(Cl)cc1NC(=O)c1cnc2sccn2c1=O	?
Cn1ccnc1	8%
CCSc1nnc(NC(=O)C(C)(C)C)s1	5%
CCN(CC)CCCN1C(=O)C(O)=C(C(=O)c2sc(C)nc2C)C1c1ccc(C)o1 (centres undefined)	6%
Later entries.
SMILES	HSD17B inh
Cc1ccc(C)c(OCC(=O)Nc2cc(C)on2)c1	10%
COc1ccccc1OCC(=O)Nc1ccc(S(=O)(=O)NC(C)=O)cc1	-2%
CCOC(=O)NC1(C(F)(F)F)C(=O)NC(C)=C1C(=O)OC (centres undefined)	-5%
CCOC(=O)C1CCCN(C(=O)c2ccc(CS(=O)(=O)Cc3ccccc3C)o2)C1 (centres undefined)	4%
CCOC(=O)C1CCN(C(=O)CN(Cc2ccc(Cl)cc2)S(C)(=O)=O)CC1	-9%
CC(C)COC(=O)Nc1ccccc1C(=O)N1CCOCC1	6%
CCCCn1nnc(NC(=O)COc2cc(C)ccc2C(C)C)n1	0%
COCCCNC(=O)CN1C(=O)CSc2ncccc21	8%
CCOc1cc(S(=O)(=O)Nc2ccccn2)ccc1F	4%
C=CCc1ccccc1OC[C@H](O)CNC(C)C	-2%[25.6 µM]
O=c1nc(NC2CCCC2)ccn1Cc1cccc(Br)c1	7%
CCOC(=O)N1CCC(NC(=O)Cc2cn(C)c3ccccc23)CC1	-7%
Cc1ccc(C(=O)NC2CCN(C(=O)N3CCOCC3)CC2)cc1	6%
CC(C)C(NC(=O)OC(C)(C)C)C(=O)N1CCCC1C(=O)NC(Cc1ccccc1)C(N)=O (centres undefined)	11%
Cc1cc(N2CCCCC2)n2ncc(-c3ccc(Cl)cc3)c2n1	3.2µM*
Cc1noc(C)c1-c1nccc(NCc2ccccc2)n1	?
O=C(Nc1cc(C(=O)N2CCOCC2)ccc1N1CCCC1)c1cccs1	3%
COc1ccccc1-c1oc2ccccc2c(=O)c1O	?
CCc1c(C)sc(NC(=O)c2cc(C3CC3)on2)c1C#N	?
COc1cc2c(cc1OC)CN(Cc1cc(=O)n3cc(C)ccc3n1)CC2	-1%
CN(CCCNC(=O)C1CCC(=O)N1Cc1ccc(F)cc1)c1ccccc1 (centres undefined)	1%
O=C(CSc1ccc2nnc(-c3cccnc3)n2n1)N1CCc2ccccc21	6%
CCOC(=O)c1c(C)c(C(=O)N2CCCCCC2)c(C)n1C	5%
Cc1nn(-c2ccccc2)c(C)c1C(=O)OCC(=O)NCc1ccco1	-6%
CCc1nnc(NC(=O)c2cccc(S(=O)(=O)N3CCc4ccccc43)c2)s1	-30%
Remaining list, next part:
SMILES	HSD17B inh
Cc1cc(C)c2c(=O)[nH]n(C3CCOC(C)(C)C3)c2n1 (centres undefined)	2%
Cn1c(SCc2ccccc2)nnc1C1CCCNC1 (centres undefined)	6%
CC(C)(C)NC[C@H](O)COc1cccc2c1CCC(=O)N2	-1%[25.6 µM]
CSc1oc(-c2ccccc2)nc1S(=O)(=O)c1ccc(C)cc1	-5%
O=c1sc(N2CCN(c3ccccc3F)CC2)nc2ccsc12	?
CCOC(=O)N1CCC(NC(=O)Cn2nc(Cc3ccncc3)c3ccccc3c2=O)CC1	15%
COC(=O)c1cc(OC)c(OC)cc1NC(=O)c1cccnc1	8%
Cn1cccc1C(=O)N1CCC[C@@]2(CCN(C(=O)Nc3cccc(F)c3)C2)C1	8%
COc1cccc(Nc2c(F)c(F)c(F)c(F)c2C(=O)O)c1	10%
O=C(Nc1ccn(Cc2ccc(F)cc2)n1)c1ccncc1	1%
CCC(Sc1nc2cc3c(cc2c(=O)n1Cc1ccco1)OCO3)C(=O)Nc1cccc(OC)c1 (centres undefined)	3%
CN(Cc1ccccc1)c1ncnc2c1cnn2-c1ccccc1	?
S=c1[nH]c2ccccc2s1	-26%
O=C(CN1CCN(C2CCCCC2)CC1)Nc1ccccc1-c1ccccc1	-10%
CC(=O)c1ccc(NC(=O)CCn2c(=O)oc3ccccc32)cc1	-2%
OC(COc1c(F)cc(Br)cc1F)CN1CCN(c2ccc(F)cc2)CC1 (centres undefined)	-12%
C=CCn1cc(C(=O)NCCOC)c(=O)c2cc(S(=O)(=O)N(CC)CC)ccc21	-1%
COc1ccc(O)c(C(=O)c2cc(C#N)c(=O)n(-c3c(C)n(C)n(-c4ccccc4)c3=O)c2)c1	-8%
O=C(CN1CCOc2ccccc21)NCc1ccc(Cl)cc1	-1%
CC1(C)NC(=O)N(CCOCCOc2cccc(Oc3ccccc3)c2)C1=O	10%
CCN1C(=O)CC(N2CCC(C(=O)OC)CC2)C1=O (centres undefined)	13%
CNc1cccccc1=S	?
CC(=NCc1ccco1)C1=C(O)c2ccccc2C1=O	-4%
O=c1c(-c2cccs2)nc2cnc(Oc3ccccc3)nc2n1-c1ccccc1	25µM*
CCOC(=O)C1=C(C)N=c2s/c(=C\c3ccncc3)c(=O)n2C1c1ccc2c(c1)OCO2 (centres undefined)	-26%
(list continues)
SMILES	HSD17B inh
Clc1ccc2[nH]c3c(c2c1)CCc1cn[nH]c1-3	?
Cc1c(O)ccc2c1OCO2	6%[11.4 µM]
c1ccc2c(c1)-c1ccccc1C2N1CC2CCC(CC2)C1	8%[11.4 µM]
CCOC(=O)C1CCN(C(=O)c2ccc3snnc3c2)CC1	7%
Cc1cc(Nc2nc3c(c(=O)n(C)c(=O)n3C)n2C)n(-c2ccccc2)n1	4%
O=C(CN1CCOCC1)Nc1ccc(C2CCCCC2)cc1	1%
CCN(CC)S(=O)(=O)c1ccc2oc(C(=O)N3CCOCC3)c(C)c2c1	-3%
COc1ccc(S(=O)(=O)N2CCC(C(=O)NCc3ccco3)CC2)cc1	-2%
c1ccc(-c2n[nH]c3c2CCC3)cc1	-11%
Brc1ccc(-c2nnc3sc(CN4CCc5ccccc5C4)cn23)cc1	0%
Cc1cc(C)c2c(n1)nn1c(N3CCN(c4ccccn4)CC3)cc(C)nc21	?
C=CCOc1ccc(C(=O)N(Cc2ccc(N(C)C)cc2)C2CCS(=O)(=O)C2)cc1 (centres undefined)	-6%
Cc1nc(N2CCN(Cc3ccccc3)CC2)nc2c1C(=O)CCC2	6%
Cc1ccc(OCCN2C(=O)CSC2=O)cc1	1%
c1ccc(CCNc2ccccn2)nc1	8%[11.4 µM]
Cc1cc(C)c(S(=O)(=O)NCc2cn3c(C)csc3n2)c(C)c1	2%
NC(=O)c1ccccc1NS(=O)(=O)Cc1ccccc1	32µM*
CS(=O)(=O)Nc1ccccc1C(=O)N1CCOCC1	-2%
O=C(COC(=O)C12CC3CC(CC(O)(C3)C1)C2)NC(=O)NCc1ccco1	1%
CCc1c(C)nc2[nH]nc(-c3ccccc3)n2c1=O	32µM*
CN(C)CCCN1C(=O)C(=O)/C(=C(/O)c2ccc3c(c2)OCCO3)C1c1ccco1 (centres undefined)	9%
N#Cc1ccc(CN2CC3(CCN(C(=O)c4csnn4)CC3)C2)cc1	13%
CC(C(=O)NCc1ccccc1)N1C(=O)CN(C)C(=O)c2ccccc21 (centres undefined)	5%
Cn1ccnc1SCC(=O)Nc1cccc2ccccc12	5%
O=C(C1CCC(=O)N1Cc1ccccc1Cl)N1CCN(c2cccc(Cl)c2)CC1 (centres undefined)	0%
Going on with the list.
SMILES	HSD17B inh
O=C(NC1CCCC1)C1C2C=CC3(CN(Cc4cccs4)C(=O)C13)O2 (centres undefined)	2%
O=C(CSc1ncccc1-c1nc2ccccc2[nH]1)NC1CC1	-19%
Cc1ccc(C2=[N+]([O-])C3(CCCCC/C3=N\O)N(O)C2(C)C)o1 (centres undefined)	-4%
CC1CCC2(OC1)OC1CC3C4CC[C@@H]5CC(O)CC[C@@]5(C)C4CC(=O)[C@]3(C)C1C2C (some centres undefined)	5%
Cc1[nH]nc2c1C(=O)CCC2	-3%
Nc1nc(-c2ccccc2Br)cs1	?
CCN1CCN(C(=O)Cn2c(=O)sc3ccccc32)CC1	3%
c1csc(-c2nc3ccccc3[nH]2)c1	25µM*
O=C(CN1CCN(Cc2ccc3c(c2)OCO3)CC1)Nc1ccc2c(c1)OCCO2	-2%
CSc1nnc(-c2cnccn2)n1C	1%
CCOC(=O)N1CCC(NCCNC(=O)c2ccccc2)CC1	2%
NC(=O)c1ccc2c(c1)OCCO2	1%
CCCC(C(=O)NCc1ccco1)N(C(=O)CNS(=O)(=O)c1ccccc1)c1ccccc1OC (centres undefined)	7%
O=C1OC2(CCCCC2)OC(=O)C1=CNc1nccs1	3%
Clc1ccc(-c2ccc(-c3nn4c(-c5ccco5)nnc4s3)o2)cc1	16µM*
COC(=O)c1ccccc1NC(NC(=O)c1ccco1)C(=O)c1ccc(C)cc1 (centres undefined)	1%
CCC(=O)c1ccc(OCC(O)Cn2cnc3ccccc32)cc1 (centres undefined)	4%
CCOC(=O)CN(C(=O)CSc1nnc(-c2ccncc2)n1CCCN(C)C)c1ccccc1	-21%
CS(=O)(=O)C1=C(O)C(=O)N(c2ccccc2)C1c1ccccc1 (centres undefined)	0%
CC(=O)NC(C)c1nc2ccccc2n1C(C)C (centres undefined)	-1%
CC(=O)c1cccc(N(C(=O)c2ccco2)C(C(=O)NC2CCCC2)c2ccncc2)c1 (centres undefined)	4%
CN(Cc1ccco1)c1ncnc2ccc(-c3cccc(NS(C)(=O)=O)c3)cc12	-8%
CCOc1ccccc1C(=O)NC1CC2CCCC(C1)N2C1CC1 (centres undefined)	2%
CCNc1nc(NC(C)C)nc(Oc2ccc(OCCOc3ccccc3)nn2)n1	1%
CCn1cc(Br)c(C(=O)Nc2cccc(SC)c2)n1	-3%
(next part)
SMILES	HSD17B inh
CN1CC(=O)N(C)c2nc(Br)n(C)c2C1=O	0%
COC(=O)C[C@@H]1O[C@H]1[C@H](C)[C@@H](OC)C(C)C	?
Cc1cccc(C(=O)Nc2ccc(CC(=O)O)cc2)c1	4%
COCCCNC(=O)c1oc2ccc(S(=O)(=O)N(C)C3CCCCC3)cc2c1C	-4%
Cc1noc(C)c1C(=O)N1CCC2(CC1)CN(Cc1cc(C(F)(F)F)cc(C(F)(F)F)c1)C2	1%
C[C@@]1(CO)[C@H](O)CC[C@]2(C)[C@@H]1CC[C@H]1C[C@H]3C[C@]12CC[C@]3(O)COC(=O)CN	5%[11.4 µM]
